KCNQ2 block = KCNQ2 potassium channel inhibitors, primary screen, cell-based, CHO-K1, FluxOR thallium flux, B-score (AID 2156); 20 min; stronger effect = lower value; only compounds with negative scores are shown here; some inactives read as strong as hits; B-score at 10 µM; 310,000 compounds, 1.1% hits;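 active = fluorescence ratio B-score at most minus 3 library SDs, with starting brightness B-score within 2 library SDs, cut at about -5.5 in these data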
Target sequence (O88943 whole entry, looked up): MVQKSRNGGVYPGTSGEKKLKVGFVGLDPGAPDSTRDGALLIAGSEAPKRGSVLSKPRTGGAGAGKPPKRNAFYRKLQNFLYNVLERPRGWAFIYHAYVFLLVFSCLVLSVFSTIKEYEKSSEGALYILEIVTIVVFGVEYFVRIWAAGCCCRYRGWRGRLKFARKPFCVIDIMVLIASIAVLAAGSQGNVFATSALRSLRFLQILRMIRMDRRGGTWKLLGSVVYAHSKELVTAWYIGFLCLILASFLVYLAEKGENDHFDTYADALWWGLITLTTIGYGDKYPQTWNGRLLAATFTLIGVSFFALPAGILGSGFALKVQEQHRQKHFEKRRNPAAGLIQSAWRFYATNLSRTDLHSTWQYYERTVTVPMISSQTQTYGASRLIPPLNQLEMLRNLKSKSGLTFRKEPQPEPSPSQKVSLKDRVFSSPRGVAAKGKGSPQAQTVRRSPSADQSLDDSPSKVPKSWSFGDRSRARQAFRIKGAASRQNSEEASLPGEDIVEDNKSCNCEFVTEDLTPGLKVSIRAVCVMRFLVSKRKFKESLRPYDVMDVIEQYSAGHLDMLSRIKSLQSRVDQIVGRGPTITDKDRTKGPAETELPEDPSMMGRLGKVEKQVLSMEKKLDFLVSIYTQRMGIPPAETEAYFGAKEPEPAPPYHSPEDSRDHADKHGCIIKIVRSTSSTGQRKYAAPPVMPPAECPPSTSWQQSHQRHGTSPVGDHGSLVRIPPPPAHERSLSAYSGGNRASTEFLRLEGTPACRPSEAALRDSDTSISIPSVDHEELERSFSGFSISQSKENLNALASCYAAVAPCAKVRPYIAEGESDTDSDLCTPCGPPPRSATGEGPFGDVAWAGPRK
KCNQ2 block baseline = recorded beside KCNQ2 block, whose call it bears; B-score; measured here: initial fluorescence intensity artifact check;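 brightness before thallium and not channel activity; 0 = typical well and far values either way flag optical interference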
An asterisk follows results filed as active; i = inactive. A portion of the library; count on the stated rates, not on these rows.

SMILES	KCNQ2 block	KCNQ2 block baseline
CO/N=C(/CNC(=O)c1ccccc1Cl)c1ccc(Cl)cc1	i	0.29
CNS(=O)(=O)c1ccc(NC(=O)C2CC(=O)N(c3ccc(Cl)cc3)C2)cc1 (stereo not drawn)	i	0.13
CCOC(=O)C1(C)NC(c2ccco2)C2C(=O)N(c3ccc(C)cc3)C(=O)C21 (stereo not drawn)	i	0.54
CSCCC(NC(N)=O)C(=O)NCc1ccccc1Cl (stereo not drawn)	i	0.55
CC(Nc1cc(N2CCN(S(=O)(=O)N(C)C)CC2)ccc1[N+](=O)[O-])c1ccccc1 (stereo not drawn)	i	1.32
Cc1cc(O)c(C(C)C)cc1NC(=O)c1cccc(Cl)c1	i	-2.02
CC(=O)N1CSCC1C(=O)N1CCN(c2ccc(N3CCOCC3)nn2)CC1 (stereo not drawn)	i	-0.4
Cc1ccc(-c2nnc(CCC(=O)NCc3csc(C)n3)o2)s1	i	-0.01
O=C(c1cc2n(n1)C(C(F)(F)F)CC(c1ccco1)N2)N1CCc2ccccc2C1 (stereo not drawn)	i	1.74
Cc1ccc(N2CC(C(=O)NCCS(=O)(=O)N3CCN(c4ccc(F)cc4)CC3)CC2=O)cc1 (stereo not drawn)	i	1.35
Cc1ccc(NC(=O)N2CCCc3ccccc32)cc1	i	-0.23
Cn1c(SCC(=O)Nc2ccc(F)cc2)nnc1C1CC1	i	2.08
C=CCNc1c2c(nc3nnnn13)CCCC2	i	-0.92
O=C(CN(c1cccc([N+](=O)[O-])c1)S(=O)(=O)c1ccccc1)N(Cc1ccccc1)Cc1ccccc1	i	-1.39
COC(=O)Nc1nc2ccc(C(=O)c3ccc(F)cc3)cc2[nH]1	i	0.67
Cc1ccc(-c2cc(-c3ccccc3)no2)cc1	i	1.15
O=C(CCCC(=O)N(c1ccc2c(c1)OCCO2)C(C(=O)NC1CCCCC1)c1ccc(F)cc1)Nc1ccccn1 (stereo not drawn)	i	1.01
CC(C)c1ccc(C2C3CSCC=C3C(C#N)=C(N)C2(C#N)C#N)cc1 (stereo not drawn)	i	1.38
Cn1c(=O)c2c(nc3n2CCS3)n(C)c1=O	i	0.53
OCC1(Cc2ccc(F)cc2F)CCCN(Cc2ccc(Cl)cc2)C1 (stereo not drawn)	i	-0.96
CC1CCCN(C(=O)c2cc(S(=O)(=O)N3CCCCC3)c[nH]2)C1 (stereo not drawn)	i	0.8
O=C(NCCCN1CCN(Cc2ccccc2)CC1)C1CCN(S(=O)(=O)N2CCC3(CC2)OCCO3)CC1	i	-1.25
CCOC(=O)C(NCc1ccc(OC)cc1)(NC(C)=O)C(F)(F)F (stereo not drawn)	i	3.32
CN(C)CCCN(C(=O)c1sc2ccccc2c1Cl)c1nc2ccc(F)cc2s1	i	-0.53
CC1CC(C)CN(CCCNC(=O)c2cn(C)c3ccc(S(=O)(=O)N4CCCC4)cc3c2=O)C1 (stereo not drawn)	i	0.46
Going on with the list:
SMILES	KCNQ2 block	KCNQ2 block baseline
CCOC(=O)CC(=O)CSc1nc2cc(C)ccc2cc1C	i	-0.96
CC(CN(C)Cc1ccccc1)OC(=O)c1ccc(F)cc1 (stereo not drawn)	i	0.67
COc1cccc(-n2c(=O)[nH]cc(C(=O)Nc3ccc(NC(C)=O)cc3)c2=O)c1	i	-1.67
Cc1ccc(CN2CCN(/N=C/c3cc([N+](=O)[O-])ccc3Cl)CC2)cc1	i	-0.43
CC(=O)N1C(=S)NC(=O)/C1=C1/C(=O)N(CC(=O)Nc2cccc(C)c2)c2ccccc21	i	0.13
COC(=O)c1nc(N)sc1-c1ccc(Cl)c(Cl)c1	i	0.96
COc1ccc(NS(=O)(=O)c2ccc3c(c2)N(C(C)=O)CCO3)c(OC)c1	i	0.01
Cc1nn(C)c(Oc2ccc(Cl)cc2)c1C(=O)Nc1ccc(F)cc1F	i	-1.49
COc1cc(NC(=S)NC(=O)c2cc(C)cc(C)c2)ccc1NC(=O)c1cccs1	i	-0.79
Cc1csc(=NC(=O)c2ccccc2)n1CCO	i	0.1
O=C1CN(C(=O)/C=C/c2ccco2)c2ccccc2N1	i	0.64
CCc1nnc(NC(=O)CSc2nc(C)nc3c2c(=O)n(C)c(=O)n3C)s1	i	-2.1
COC(=O)c1[nH]c2c(c1C)C(=O)CC(c1ccc(OC)cc1)C2 (stereo not drawn)	i	-0.56
CC(=O)c1ccc(NC(=O)/C(C#N)=C/c2ccncc2)cc1	i	0.38
CCOCC(=O)Nc1ccc(F)c(F)c1	i	1.14
Cc1nc2ccc(S(=O)(=O)Nc3cccc(-c4nc5cccnc5s4)c3)cc2s1	i	-0.92
COCCCNS(=O)(=O)c1ccc(Oc2ncc(C(F)(F)F)cc2Cl)cc1	i	-0.38
Cc1ccc(-c2ccc(/C=C3\C(=O)ON=C3c3ccccc3)o2)c([N+](=O)[O-])c1	i	-0.52
O=C(CCc1nnc(CCCCc2ccccc2)o1)NCCC1CCCCO1 (stereo not drawn)	i	0.55
CN(C(=O)c1cccc(C#N)c1)c1nnc(-c2cnccn2)s1	i	-1.06
Clc1ccccc1OCc1nn[nH]n1	i	-1.65
O=C1CCCC2=C1C(O)(C(F)(F)F)C(=O)N2Cc1ccccc1 (stereo not drawn)	i	2.31
Cc1cc2ccccc2c(=O)n1CC(=O)NCC(=O)N1CCN(c2ccccc2)CC1	i	-1.44
Cc1cc(NC(=O)CCCN2C(=O)/C(=C/c3ccccc3Cl)SC2=S)no1	i	-0.35
CCN(CC)S(=O)(=O)c1ccc(C)c(N=C=S)c1	i	-1.78
More compounds
SMILES	KCNQ2 block	KCNQ2 block baseline
Cc1ccc2[nH]c3c(=O)n(Cc4ccccn4)cnc3c2c1	i	0.83
CC1(C(=O)N/N=C/c2ccc([N+](=O)[O-])o2)CC1(Br)Br (stereo not drawn)	i	-1.36
COCCNC(=O)C(C)Oc1ccc(Cl)cc1Cl (stereo not drawn)	i	-1.57
Cc1cc(Cn2nnnc2-c2ccncc2)cc(C)c1O	i	-1.88
Nc1nc2ccccc2n1C(=O)c1ccc(F)cc1	i	0.78
O=C(c1ccc2nc(Cc3cccc(Cl)c3)oc2c1)N1CCC(CO)CC1	i	-0.6
CN(C)CC1CCCCC1OC(=O)c1ccc(S(=O)(=O)N(C)c2ccccc2)cc1 (stereo not drawn)	i	-0.31
Cc1ccc(-n2c(N)c(C#N)c(-c3ccccc3)c(C#N)c2=O)cc1	i	-0.48
Cc1cc(C)n(CC(=O)N2CCCC(C(=O)c3cccc(OC(C)C)c3)C2)n1 (stereo not drawn)	i	0.35
CCCc1c(-c2ccc(O)cc2)nn(-c2ccc(O)cc2)c1-c1ccc(O)cc1	-6.58*	-0.36*
O=C(NC(=S)Nc1cccc2cc(O)ccc12)c1ccco1	i	-0.4
Clc1ccc(COc2ccccn2)c(Cl)c1	i	0.45
CN(c1ccccc1)S(=O)(=O)c1ccc2[nH]c(=O)[nH]c2c1	i	-1.66
CCOc1ccc(N2CC(C(=O)NCCN3C(=O)S/C(=C\c4cccnc4)C3=O)CC2=O)cc1 (stereo not drawn)	i	-0.92
COc1ccc(C(=O)NCC(=O)NCC(=O)OCc2ccc(Cl)cc2)cc1	i	1.01
Cc1cc(NC(=O)c2ccco2)ccc1NC(=O)Cc1cccs1	i	-0.22
CCOc1ccccc1NC(=O)Nc1ccc(Br)cn1	i	0.94
Cc1cc(NS(=O)(=O)c2ccc(C(C)C)cc2)no1	i	-1.48
CC(C)C(=O)Nc1ccc(N2CCN(S(C)(=O)=O)CC2)cc1	i	-0.64
CCSc1nnc(NC(=O)c2cc(-c3ccc(C)c(C)c3O)n[nH]2)s1	i	-1.9
Cc1ccccc1CN1CCN(C(=O)c2cccc(F)c2)CC1	i	-0.84
C[C@]12C(=O)N(c3ccc(Br)cc3)C(=O)N1[C@@H]1c3ccccc3OC[C@@H]1[C@H]2c1ccccc1	i	-0.07
O=C1c2ccccc2C(=O)N1c1ccccc1S(=O)C(F)(F)F (stereo not drawn)	i	-0.03
Cc1cc(C(=O)NC2CCCc3c2cnn3-c2cccc(C)c2C)n(C)n1 (stereo not drawn)	i	-1.88
O=C(CSc1nnc(-c2ccco2)n1CC1CCCO1)c1ccccc1 (stereo not drawn)	i	-1.42

7 structures out of the list, arranged by heavy-atom count, low to high.
SMILES	KCNQ2 block	KCNQ2 block baseline
CC1(C(=O)N/N=C/c2ccc([N+](=O)[O-])o2)CC1(Br)Br (stereo not drawn)	i	-1.36
CCOc1ccccc1NC(=O)Nc1ccc(Br)cn1	i	0.94
O=C(NC(=S)Nc1cccc2cc(O)ccc12)c1ccco1	i	-0.4
Cc1ccccc1CN1CCN(C(=O)c2cccc(F)c2)CC1	i	-0.84
O=C(c1ccc2nc(Cc3cccc(Cl)c3)oc2c1)N1CCC(CO)CC1	i	-0.6
CCCc1c(-c2ccc(O)cc2)nn(-c2ccc(O)cc2)c1-c1ccc(O)cc1	-6.58*	-0.36*
CN(C)CC1CCCCC1OC(=O)c1ccc(S(=O)(=O)N(C)c2ccccc2)cc1 (stereo not drawn)	i	-0.31

(cont.)
SMILES	KCNQ2 block	KCNQ2 block baseline
CCn1c(C)nc2cc(C(=O)N/N=C/c3cccc(OC)c3O)ccc21	i	-2.56
CN(C)C(=O)CSc1nc2ccccc2c(=O)[nH]1	i	-0.64
C=CCNC(=O)C(C)Sc1ccc(Cl)cc1 (stereo not drawn)	i	0.61
CC1CCCN(CCCNC(=O)C2CC(=O)N(CCc3ccccc3)C2)C1 (stereo not drawn)	i	1.72
N#Cc1ncc(C(F)(F)F)cc1Sc1ccc(N)cc1	i	-0.34
CCn1c(=O)c([N+](=O)[O-])c(NCCN(C)C)c2ccccc21	i	-1.44
CCCC1=[N+](CC(=O)c2ccc(Br)cc2)CCn2cccc21	i	0.33
COc1ccccc1C(C)NCC(=O)Nc1ccccc1C(F)(F)F (stereo not drawn)	i	-1.62
O=c1c(-c2ccccc2)coc2c(CN3CCCC3)c(O)ccc12	i	1
Cc1cccc(CN2CCC(C(N)=O)CC2)c1	i	-1.01
O=C(N/N=C\c1ccc2c(c1)OCO2)c1ccc(Cn2cc(Br)c([N+](=O)[O-])n2)o1	i	0.04
O=C(c1ccc2ccccc2n1)N1CCN(Cc2c(F)cccc2Cl)CC1	i	-1.03
CCCOC(=O)c1c(NC(=O)CSc2nc(-c3ccco3)cc(C(F)(F)F)n2)sc(C(=O)OC)c1C	i	2.16
Cc1cccc(NC(=O)c2cccc(C(=O)Nc3cccc(C)c3)n2)c1	i	-0.47
CC(C)(C)n1nnnc1C(c1ccccc1)N1CCc2ccccc2C1 (stereo not drawn)	i	-0.02
O=C(CN1C(=O)S/C(=C\c2cccc(Cl)c2)C1=O)NCCCn1ccnc1	i	3.5
Cc1ccc(S(=O)(=O)N2CCCC2C(=O)O)cc1 (stereo not drawn)	i	0.38
O=C(CC1C=Cc2ccccc2N1C(=O)c1ccccc1)c1ccccc1 (stereo not drawn)	i	0.68
COc1cccc(/C=C2/CN(C)CC3=C2OC(N)=C(C#N)C3c2cccc(OC)c2)c1 (stereo not drawn)	i	0.57
CCN1/C(=C/c2ccc3cccc(C)c3[n+]2CC)Sc2ccccc21	i	50.5
COc1ccc(-c2ccnc3nc(N4CCN(c5ccccc5)CC4)nn23)cc1	i	-0.64
Cc1ccc(CN2CCN(C3CCCC3)C(CCO)C2)s1 (stereo not drawn)	i	0.55
COc1cc(C2NC(=S)NC(C)=C2C(=O)c2ccccc2)ccc1O (stereo not drawn)	i	0.25
CC(=O)Nc1ccc(Oc2cnccn2)cc1	i	-0.72
Cc1ccc(CC(=O)NCc2ccc3c(c2)OCO3)cc1	i	0.03

Random excerpt: 3 entries already listed.
SMILES	KCNQ2 block	KCNQ2 block baseline
COc1ccccc1C(C)NCC(=O)Nc1ccccc1C(F)(F)F (stereo not drawn)	i	-1.62
CCn1c(=O)c([N+](=O)[O-])c(NCCN(C)C)c2ccccc21	i	-1.44
N#Cc1ncc(C(F)(F)F)cc1Sc1ccc(N)cc1	i	-0.34

(more compounds)
SMILES	KCNQ2 block	KCNQ2 block baseline
C=CCSc1nnc2c(n1)OC(c1c(C)[nH]n(-c3ccccc3)c1=O)Nc1ccccc1-2 (stereo not drawn)	i	1.07
COCCn1cnc2c(c1=O)c1nc3ccccc3nc1n2/N=C/c1ccc(OC)c(OC)c1	i	-0.63
CN1C(=O)C(=O)/C(=C(/O)c2ccc(Br)cc2)C1c1cccc([N+](=O)[O-])c1 (stereo not drawn)	i	1.04
Cc1nc2nc3c(cn2n1)C(=O)CC(c1ccccc1)C3 (stereo not drawn)	i	-0.44
CN(C)C(=O)N1CCNCC1	i	-0.23
CCOC1(OCC)C(c2ccc(Cl)cc2)C(C#N)(C#N)C1(OCC)OCC (stereo not drawn)	i	-1.03
Cc1ccc(Oc2nc3ccccn3c(=O)c2/C=C(\C#N)C(=O)Nc2c(C)n(C)n(-c3ccccc3)c2=O)c(C)c1	i	-0.05
COc1ccc(NC(=O)C23CCC(C2)C(C)(C)C3=O)cc1 (stereo not drawn)	i	1.55
O=C(Nc1ccccc1)C1=C[C@H](c2csc3ccccc23)C[C@H](OCc2ccc(CO)cc2)O1	-5.66*	0.34*
Nc1nonc1-n1nnc(C(=O)N/N=C/c2ccc(O)cc2)c1CN1CCCCCC1	i	-0.29
Cc1ccc(CNC(=O)C2CC(c3ccccc3C(F)(F)F)=NO2)o1 (stereo not drawn)	i	-0.45
CCCCCn1nc(C(=O)N(CC(C)C)c2c(N)n(CCCC)c(=O)[nH]c2=O)c2ccccc2c1=O	i	1.99
